# Rango-impB inh: prevents formation of the Rango-importin beta complex. hit rate 0.031% among 340,000. Potency, µM (series often up to 92.2 µM), for inactives: top-dose inhibition of complex formation. Rango CFP/YFP FRET sensor + importin beta, 45 min; active = rising FRET ratio curve, often small or poorly fitted; inconclusive = mostly compound fluorescence or quenching in the first reads; inactive = flat curves in all reads;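 also: potency is read from the fitted curve at half-maximal effect; 0% = DMSO wells and 100% = buffer wells lacking importin beta; nearly all actives have a fitted effect of over 15% in size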
#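 FRET biosensor (snurportin 1 IBB flanked by EYFP and cerulean), 50 nM, with compound 5 min, then 0.125 microM importin beta in PBS, 1 mM DTT, 0.02% Tween-20, 0.1% BSA. CFP/YFP ratio read after 45 min at room temperature; pre-read flags interference.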
# miR-21 FLuc: raises the signal of a miR-21 reporter; HeLa miR-21 FLuc reporter, luciferase, 48 h; Potency, µM (top dose mostly 38.3 µM), for the others: top-dose reporter change, positive = more light; AID 2288; 340,000 tested, under 10 active; active = well fitted rising curve with a large enough effect; inconclusive = small, poorly fitted or top-dose-only effect; inactive = no such curve, though single readings can be large or run the other way;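 also: % of control where 0% means no effect; miR-21 action dims this reporter so a rising signal means less miR-21 action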
#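 HeLa cells endogenously expressing miR-21, stably carrying CMV-driven firefly luciferase with a downstream miR-21 binding site, 2000 cells/well. Titrations up to approximately 40 uM, 48 hours; luciferase luminescence read.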
# Rango dissoc inh: prevents RanGTP from dissociating the Rango-importin beta complex. O95149+P62826. Biochemical FRET Rango-importin beta, RanGTP-induced dissociation. Potency, µM (series often up to 46.1 µM), without a hit: at the highest dose activity change, negative = inhibition. hit rate 0.071% among 340,000. AID 540253; active means falling FRET ratio curve, often poorly fitted, with flat reads before Ran was added; inconclusive means other falling curves, or compound fluorescence or quenching; inactive means flat or rising ratio curve;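 also: potency is read from the fitted curve at half-maximal effect; % of control where 0% means no effect; nearly all actives have a fitted effect of over 45% in size; -100% = wells without RanGTP and RCC1; the record marks most hits as doubtful in a second field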
#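 Rango (0.1 uM)–importin beta (0.25 uM) complex; RanGTP-RCC1 trigger; 45 min RT; CFP/YFP FRET read.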
# GLA inh pH 4.5: inhibitors of human alpha-galactosidase A at pH 4.5. P06280. purified enzyme, 4-MU-alpha-Gal fluorescence, pH 4.5. activity change, negative = inhibition, % at 105 µM. 230,000 tested, under 10 active; inconclusive = small, poorly fitted or top-dose-only inhibition, or a rising curve; inactive = flat fitted curve, though single readings scatter; no compound was filed as active;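 also: 0% = full activity with enzyme and -100% = basal without enzyme; dose as in the result columns while the protocol names 77 µM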
# Target sequence (P06280 whole entry, looked up): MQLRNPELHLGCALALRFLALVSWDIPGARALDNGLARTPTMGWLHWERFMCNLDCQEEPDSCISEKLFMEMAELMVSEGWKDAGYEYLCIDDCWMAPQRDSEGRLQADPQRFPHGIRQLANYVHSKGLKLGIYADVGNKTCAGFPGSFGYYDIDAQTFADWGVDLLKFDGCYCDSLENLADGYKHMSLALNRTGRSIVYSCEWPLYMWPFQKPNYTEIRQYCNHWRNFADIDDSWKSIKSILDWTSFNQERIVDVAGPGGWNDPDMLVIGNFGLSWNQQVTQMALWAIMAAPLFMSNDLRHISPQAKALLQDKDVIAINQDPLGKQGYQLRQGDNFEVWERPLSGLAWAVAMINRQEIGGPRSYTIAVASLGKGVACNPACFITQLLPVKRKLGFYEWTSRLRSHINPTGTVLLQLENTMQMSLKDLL
# Active calls of the source: *; ? = inconclusive; . = not tested or not shown; [ ] = remark or other dose. These rows are one share of the data; rates above refer to the full screens.
SMILES,Rango-impB inh,miR-21 FLuc,Rango dissoc inh,GLA inh pH 4.5
CC(=O)N1c2ccc(S(=O)(=O)NCC3CCC(C(=O)Nc4cccc(C)n4)CC3)cc2CC1C (stereo not drawn),4.4%,30%,6%,.
COC(C[C@H]1O[C@H]1[C@H](O)COCc1ccccc1)OC,0.0%,0%,1%,1
CC(C)(C)n1nnnc1C(c1ccncc1)N1CCN(C2CCCCC2)CC1 (stereo not drawn),0.6%,-6%,-2%,7
COc1ccc(NC(=O)Nc2ccccc2C(=O)N2CCCC2)cc1,1.6%,-15%,2%,-7
O=C1Nc2ccccc2O/C1=C\c1ccccc1Br,?,-5%,-22%,.
COc1cccc(NC(=O)N2CCCC2C(=O)NCc2ccco2)c1 (stereo not drawn),2.3%,0%,29%,.
CC(=O)Nc1ccc(S(=O)(=O)NCCC(=O)NNC(=O)c2ccncc2)cc1,0.5%,.,8%,.
CCOc1ccc(CCN2C(=O)C3C4CCC(O4)C3C2=O)cc1OCC (stereo not drawn),-2.4%,.,13%,.
COc1ccc2c(c1OC)C(=O)OC2CC(=O)c1ccc(N(C)C)cc1 (stereo not drawn),?,0%,?,-3
Clc1ccc(-c2nn3c(C4COc5ccccc5O4)nnc3s2)cc1 (stereo not drawn),-1.0%,-17%,2%,3
O=C(COC(=O)[C@H](Cc1ccccc1)NS(=O)(=O)c1ccccc1F)NC1CCCCC1,-0.8%,1%,1%,-2
Cc1nnc(SCC(=O)Nc2ccc(Br)cn2)[nH]c1=O,3.4%,2%,-8%,1
CCC(C)c1nc2ccsc2c(N2CCOC2=O)c1-c1ccccc1 (stereo not drawn),-0.3%,.,0%,.
CCN1C(=O)C(CC(=O)Nc2ccc(OC)cc2)N(Cc2ccco2)C1=S (stereo not drawn),-6.8%,7%,-6%,4
Clc1cc(CSc2ccccc2)nc(-c2ccccc2)n1,-5.8%,-11%,-2%,-5
CCOc1ccc(OCCC(=O)OCC(=O)N2CCN(S(=O)(=O)c3ccc(C)cc3)CC2)cc1,1.8%,.,-1%,.
COc1ccc(CNC/C=C/c2ccccc2)cc1,4.4%,-8%,?,.
COc1ccc(C2c3sc(=O)[nH]c3SCC2C(N)=O)cc1 (stereo not drawn),2.1%,0%,12%,-3
CC(=O)NC(C)c1cc(F)c2cccnc2c1O (stereo not drawn),-0.3%,.,-12%,.
Cc1ccc(S(=O)(=O)NCCNS(=O)(=O)c2ccc(C)cc2)cc1,2.3%,5%,16%,.
Cc1ccc(N2C(=O)C3C4C=CC(CNC(=S)N5CCN(c6ccccn6)CC5)(O4)C3C2=O)cc1 (stereo not drawn),-3.0%,0%,8%,3[21.1 µM]
Cc1cccc(NS(=O)(=O)c2ccc3c(c2)CCN3C(=O)CCC(=O)O)c1,-1.2%,0%,-1%,.
COC(CNS(=O)(=O)c1ccc(Cl)cc1)c1ccccc1 (stereo not drawn),4.8%,-8%,-10%,.
Cc1ccc(C(=O)NNC(=S)Nc2cccc3ccccc23)s1,-1.6%,-55%,14%,-3
COc1nc(OC)nc(N(C)CCO)n1,-1.5%,-1%,19%,-18
Cc1ccc(NC(=O)C2CC(=O)N(c3ccc4c(c3)OCCO4)C2)cc1S(=O)(=O)N(C)C (stereo not drawn),-2.4%,.,9%,.
CN(C)C(=O)CSc1nnc(-c2cccs2)n1-c1ccccc1,-0.1%,-1%,-1%,-4
O=c1c2ccccc2cnn1Cc1n[nH]c(=S)n1-c1ccc(Cl)cc1Cl,.,-9%,.,0
CCC(=O)Nc1cccc(NC(=S)NC(=O)c2ccccc2C)c1,3.5%,-15%,-12%,-1
CCCCCCNC(=O)c1cc(S(=O)(=O)N2CCc3ccccc32)ccc1F,5.1%,-4%,4%,.
CC1CCN(c2ccc(NC(=O)c3ccc([N+](=O)[O-])o3)cc2)CC1,2.5%,.,1%,.
Cc1nonc1-c1csc(N)n1,-0.2%,1%,-14%,7
CCOc1ccc(NC(=O)c2nn(C)c(C(=O)Nc3ccc(OCC)cc3)c2[N+](=O)[O-])cc1,-0.1%,-6%,-4%,.
CC(=O)N1CCN(c2ccc(NC(=O)c3ccc4ccccc4c3)cc2)CC1,-0.9%,-31%,3%,.
CC1CCC/C=C/C(=O)c2c(O)cc(O)cc2CC(=O)O1 (stereo not drawn),?,?,-2%,6
COc1ccc(C(=O)Cn2c(=O)c(CCC(=O)O)nn3c4ccccc4nc23)cc1OC,0.2%,-1%,-5%,5
Cc1cc(S(=O)(=O)NCc2ccccn2)c(Cl)cc1Cl,-0.2%,-4%,3%,.
CCN1CCCC1CNC(=O)CN(C)S(=O)(=O)c1ccc(Cl)cc1 (stereo not drawn),-0.7%,-3%,-20%,.
C/C(=N\NC(=O)c1cccc(Br)c1)c1ccccn1,-0.5%,-1%,3%,.
CC1CCCCN1C(=O)Cn1cc(C#N)c2ccccc21 (stereo not drawn),0.2%,1%,-1%,4
COc1cccc(NC(=O)CN(C)C(=O)c2cn(-c3ccccc3)nc2-c2cccs2)c1,-1.6%,.,6%,.
CCCCn1c(N)c(N(CCOC)C(=O)CC2CCCCC2)c(=O)[nH]c1=O,-1.4%,.,-6%,.
Cc1cccc(C(=O)O/N=C(\N)c2cccc([N+](=O)[O-])c2)c1,0.3%,-45%,4%,2
COC(=O)c1ccccc1NC(=O)CN(c1ccc(OC)cc1)S(C)(=O)=O,-1.3%,12%,2%,2
O=C(CCN1CCCCC1)c1ccccc1,-3.1%,0%,21%,0
Cc1ccc(C)c(N2CCN(S(=O)(=O)c3ccc4c(c3)oc(=O)n4C)CC2)c1,-0.3%,-3%,17%,0
COc1ccc(S(=O)(=O)N2CCC(C(N)=O)CC2)cc1,2.7%,.,6%,.
O=C(O)/C=C/c1ccc(S(=O)(=O)NCc2ccco2)cc1,-0.7%,2%,25%,5
C/C=C/c1ccc(OCCOc2cc(C=O)ccc2OC)c(OC)c1,-3.6%,-57%,10%,-26
CC(=O)c1ccc(S(=O)(=O)N2CCN(C(=O)/C=C/c3ccc4ccccc4n3)CC2)cc1,-1.7%,12%,-6%,-10
Clc1ccc(-c2cc(C3CCNCC3)[nH]n2)cc1,-0.7%,-15%,-6%,-2
COc1ccccc1NC(=O)c1cccc2c(Br)cccc12,0.1%,-11%,6%,.
COc1ccc(-n2c(SCC(=O)Nc3ccc(C(N)=O)cc3)nc3c([nH]c4ccccc43)c2=O)cc1OC,1.1%,5%,14%,.
O=C(c1cc(-c2ccncc2)nc2ccc(Br)cc12)N1CCN(Cc2ccc3c(c2)OCO3)CC1,-4.2%,0%,20%,0
CCOc1ccc(NC(=O)CN(C)C(=O)c2cccnc2Sc2ccc(C)cc2C)cc1OCC,0.4%,.,?,.
Cc1ccc(NC(=O)C(C)N=C2NS(=O)(=O)c3ccccc32)cc1F (stereo not drawn),-2.8%,-58%,-11%,-9
Cc1nc2nc(SCC(=O)C(C)(C)C)[nH]c2cc1Br,-1.3%,-26%,6%,5
c1ccc(N2CCN(Cc3nnnn3C3CCCCC3)CC2)cc1,2.6%,-5%,8%,3
COCCNC(=O)c1ccc(S(=O)(=O)c2ccc(Cl)cc2)c(NC(C)=O)c1,2.2%,-1%,10%,.
CN(CC(=O)Nc1ccccc1Cl)C(=O)c1cccc(S(=O)(=O)N2CCN(c3ccccc3)CC2)c1,-0.1%,.,19%,.

# Entries of single compounds as entered above. Order of screens: Rango-impB inh	miR-21 FLuc	Rango dissoc inh	GLA inh pH 4.5
# Profile of Cc1ccc(NC(=O)C2CC(=O)N(c3ccc4c(c3)OCCO4)C2)cc1S(=O)(=O)N(C)C (stereo not drawn) = -2.4%	.	9%	.
# Profile of COc1ccc(S(=O)(=O)N2CCC(C(N)=O)CC2)cc1 = 2.7%	.	6%	.
# Profile of CCN1C(=O)C(CC(=O)Nc2ccc(OC)cc2)N(Cc2ccco2)C1=S (stereo not drawn) = -6.8%	7%	-6%	4
# Profile of Cc1cccc(C(=O)O/N=C(\N)c2cccc([N+](=O)[O-])c2)c1 = 0.3%	-45%	4%	2
# Profile of COCCNC(=O)c1ccc(S(=O)(=O)c2ccc(Cl)cc2)c(NC(C)=O)c1 = 2.2%	-1%	10%	.

# More compounds
SMILES,Rango-impB inh,miR-21 FLuc,Rango dissoc inh,GLA inh pH 4.5
Cc1ccccc1C1NC(=S)NC2=C1C(=O)CC(C)(C)C2 (stereo not drawn),2.5%,?,0%,-1
COc1ccc(OCc2cc(C(=O)NCCN3CCCC(O)C3)no2)c(Cl)c1 (stereo not drawn),4.4%,-10%,0%,.
COc1ccc(S(=O)(=O)Nc2cc(C(=O)NC3CCCCCC3)ccc2N2CCOCC2)cc1,3.4%,-25%,24%,-5
COc1ccc(NC(=O)CSc2nc3ccsc3c(=O)n2CCCCCC(=O)O)cc1,0.7%,-9%,25%,3
COc1ccc(S(=O)(=O)NCC(c2ccc(F)cc2)N2CCOCC2)cc1Br (stereo not drawn),-2.7%,.,6%,.
CCc1nn(C(C)C(=O)NCc2ccc(Cl)cc2)c(=O)c2cc3occc3n12 (stereo not drawn),-1.3%,-8%,-4%,.
CSc1nc2ccc(NC(=O)c3c(-c4ccccc4)noc3C)cc2s1,-1.3%,-3%,3%,-9
CCc1cc(C(=O)NNC(=S)NCc2ccccc2)cs1,-2.3%,-17%,1%,0
CC(C)CNC(=O)c1cccc(NC(=O)C(C)C)c1,-3.5%,-2%,-21%,3
Cc1cc(F)ccc1S(=O)(=O)N(CC(=O)N1CCOCC1)CC(=O)N1CCOCC1,-2.8%,.,20%,.
Cc1ccc(NC(=O)NNC(=O)Cn2nc(-c3ccccc3)c(-c3ccccc3)c(C#N)c2=O)cc1,1.7%,21%,-7%,0
O=C(COc1ccc(NC(=O)c2ccccc2)cc1)c1ccccc1,2.6%,-9%,9%,.
CCN1CCn2c1nc(N1CCCCC1)nc2=O,-1.7%,-3%,-4%,3
CCN1CCN(C(=O)c2ccc(S(=O)(=O)Nc3ccccc3)cc2)CC1,0.4%,.,-4%,.
O=C(COc1ccc2cc(Br)ccc2c1)N1CCOCC1,3.6%,.,21%,.
COc1ccc(NC2CCCN(C(=O)CSc3ccccc3)C2)cc1OC (stereo not drawn),-2.6%,-5%,1%,.
Cc1ccc(NC(=O)CN2CCN(C(=O)C3CCCO3)CC2)c(C)c1 (stereo not drawn),-0.5%,-5%,0%,.
CCCN(CCC)S(=O)(=O)c1cccc(-c2csc(C)n2)c1,1.0%,6%,1%,-8
CCOC(=O)c1nnn(CC(=O)Nc2cccc(F)c2)c1C(=O)OCC,2.4%,1%,11%,-7
N#C/C(=C(/O)COC(=O)CSc1ccc(Cl)cc1)c1nc2ccccc2[nH]1,?,10%,0%,4
CC1=Nc2cc(C(=O)O)ccc2Sc2c(C)ccc(C)c21,-0.2%,-1%,-1%,-4
O=C(CCSc1ccccc1)Nc1nnc(-c2cccs2)o1,-0.8%,1%,6%,6
CNC(=S)N/N=C/c1c2ccccc2c(Cl)c2ccccc12,?,-9%,?,.
O=C1NC(=O)N(Cc2ccccc2)CC1Br (stereo not drawn),-3.5%,.,1%,.
COCc1cc(C)nc(SCc2ccc(Cl)cc2)c1C#N,-19%,-15%,1%,.
N#CCSc1nc2c(sc(=S)n2Cc2ccco2)c(=O)n1-c1ccc(F)cc1,0.0%,16%,4%,-11
COc1ccc2[nH]c(C(=O)NCc3ccccc3)c(C)c2c1,-0.1%,-17%,2%,.
OC1(c2cn(Cc3ccccc3)nn2)CCCCC1,1.1%,-8%,-10%,-10

# Screening data deposited in PubChem by National Center for Advancing Translational Sciences (NCATS).
